HNF4A DNA FP = change in binding of human HNF4A to DNA, primary screen, biochemical, fluorescence polarization, FITC-DNA. hit rate 0.3% among 360,000. Hepatocyte nuclear factor 4-alpha (Homo sapiens), P41235. 1 h. activity change, % at 10 µM; in the data active = activity change above about 30%, passing the limit was not always enough;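 also: controls were the assay level and a saturating level of protein; the project sought stronger binding though the title names inhibitors; some compounds called inactive have numbers as strong as hits; positive values seem to mean higher polarization but the record does not say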
Target sequence (P41235 whole entry, looked up): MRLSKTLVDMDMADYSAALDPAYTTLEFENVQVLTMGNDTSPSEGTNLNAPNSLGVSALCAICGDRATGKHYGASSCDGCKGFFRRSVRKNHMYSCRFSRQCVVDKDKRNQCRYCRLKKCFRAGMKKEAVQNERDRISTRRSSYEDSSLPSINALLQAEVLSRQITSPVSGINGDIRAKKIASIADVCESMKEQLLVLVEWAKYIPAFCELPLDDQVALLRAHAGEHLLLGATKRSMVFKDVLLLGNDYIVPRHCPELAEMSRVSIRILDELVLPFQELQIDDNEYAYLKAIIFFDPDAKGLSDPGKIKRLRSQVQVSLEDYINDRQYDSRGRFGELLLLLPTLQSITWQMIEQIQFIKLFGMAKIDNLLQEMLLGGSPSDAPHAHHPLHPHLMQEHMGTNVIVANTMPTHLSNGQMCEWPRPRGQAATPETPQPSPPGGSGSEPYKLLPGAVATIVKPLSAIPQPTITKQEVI
ALR H2O2 inh = inhibitors of human ALR sulfhydryl oxidase, primary screen, biochemical, H2O2 detection, HRP-luminol luminescence, single point. FAD-linked sulfhydryl oxidase ALR (Homo sapiens), P55789. purified ALR, DTT oxidation. inhibition, % (no concentration beside the values). hit rate 3.8% among 290,000;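 active = mean and each replicate at 75% or more; inconclusive = only one of the two met; inactive = neither met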;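 also: stock transfer was 7.5 nL into about 7.5 µL; 0% = neutral wells and 100% = wells with inactivated enzyme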
Target sequence (P55789 whole entry, looked up): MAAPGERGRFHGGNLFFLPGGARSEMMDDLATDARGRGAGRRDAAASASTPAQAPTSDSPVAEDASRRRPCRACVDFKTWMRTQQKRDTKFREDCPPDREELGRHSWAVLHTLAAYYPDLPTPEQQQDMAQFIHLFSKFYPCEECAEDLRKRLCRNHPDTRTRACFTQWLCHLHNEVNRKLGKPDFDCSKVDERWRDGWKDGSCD
Calb FLC = C. albicans growth inhibition with fluconazole, primary screen, CaCi-2 strain, Alamar Blue fluorescence; growth inhibition, % (no concentration beside the values); C. albicans CaCi-2 (fluconazole-resistant clinical isolate) + fluconazole, 48 h; hit rate 0.57% among 300,000;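 active = most replicates above 75%; inconclusive = exactly half above 75%; inactive = most below 75%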;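 also: all wells also contain fluconazole at 8 µg/ml as a sub-toxic cotreatment; 0% = median of DMSO wells and 100% = median of geldanamycin control wells; wells of about 8 µL received 7.5 nL stock; the first replicate is given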
LANA-H2A inh = blockers of LANA interaction with H2A/H2B – biochemical, FP readout, HTS, primary screen; Protein LANA1 (Human herpesvirus 8 type P (isolate GK18)), Q9QR71; inhibition, % (test concentration not listed); AID 2629, 2010; hit rate 0.6% among 320,000; cell-free LANA-H2A/H2B peptide, fluorescence polarization; in the data active = inhibition mostly above about 10%, no sharp cut-off; inactive = mostly below about 6.7%;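 also: stock transfer was 7.5 nL into about 10 µL; 0% = median of vehicle wells and 100% = median of positive control wells; one replicate is shown; the record names a cut of 25% in any replicate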
Beta2AR agonist = beta2AR agonists driving receptor internalization, primary screen, cell-based, FAP fluorogen, flow cytometry | Beta-2 adrenergic receptor (Homo sapiens), P07550 | Am2.2-beta2AR cells; reference of the scale not given here | response, % (no concentration beside the values) | hit rate 0.43% among 340,000;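 active = response above a set limit, near 3 SD of response in nonfluorescent compounds, cut at about 42% in these data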;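 also: stock transfer was 100 nL into about 11 µL; a reference agonist was the positive control; negative values mostly stem from fluorescent compounds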
Target sequence (P07550 whole entry, looked up): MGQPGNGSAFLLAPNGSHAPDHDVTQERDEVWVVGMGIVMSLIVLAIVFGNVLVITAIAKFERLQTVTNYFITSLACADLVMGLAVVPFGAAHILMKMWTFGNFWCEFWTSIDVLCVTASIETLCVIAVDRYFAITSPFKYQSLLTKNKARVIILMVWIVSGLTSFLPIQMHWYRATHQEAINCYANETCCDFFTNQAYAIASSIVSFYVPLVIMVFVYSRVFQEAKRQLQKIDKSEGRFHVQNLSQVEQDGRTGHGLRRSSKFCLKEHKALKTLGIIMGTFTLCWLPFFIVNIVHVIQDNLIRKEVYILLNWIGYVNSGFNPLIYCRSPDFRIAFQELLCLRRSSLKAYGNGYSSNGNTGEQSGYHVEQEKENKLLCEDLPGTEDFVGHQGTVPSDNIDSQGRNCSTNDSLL
RanGTP-Imp inh = inhibitors of RanGTP-importin-beta interaction, primary screen, biochemical, FRET, CFP-Ran, YFP-importin-beta, homogeneous; Ran GTPase (GTP-bound) - importin-beta complex; cell-free CFP-Ran/YFP-importin-beta FRET ratio; inhibition, % (test concentration not listed); hit rate 1.1% among 300,000;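 active = most replicates above 15%; inconclusive = exactly half above 15%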;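 also: 0% = DMSO wells and 100% = Ran loaded with GDP instead of GTP; wells of about 40 µL received 100 nL stock; the first replicate is given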
Vif TR-FRET = inhibitors of Vif binding to APOBEC3G peptide, primary screen, biochemical, TR-FRET, GST-Vif 1-94, biotin-A3G peptide, dose response retest (AID 1117319); TR-FRET GST-Vif / biotin-A3G peptide binding; higher % means a stronger effect; test concentration not given here; strong numbers were not always called active; inhibition, %; hits with a dose series show IC50 in µM; hit rate 0.57% among 260,000;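 active = above the screen mean plus three standard deviations and confirmed in dose response; inconclusive = results disagree or hit not tested in dose response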;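 also: Vif residues 1-94 fused to GST binding biotinylated APOBEC3G peptide 110-148; 0% = full assay without inhibitor and 100% = GST in place of GST-Vif; retest series ran down from 100 µM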
Numbers without * were called inactive; ? = inconclusive; · = no result given; & = joins results of further samples. Compounds as they come, and some 6.3% of all compounds hit somewhere here.

SMILES | HNF4A DNA FP | ALR H2O2 inh | Calb FLC | LANA-H2A inh | Beta2AR agonist | RanGTP-Imp inh | Vif TR-FRET
CCN(CC(=O)Nc1c(F)cccc1F)C(=O)c1ccc(NC(=O)CC2SC(N3CCCC3)=NC2=O)cc1 (stereo not given) | 1.2 | -8.3 | -3.2 | 3.7 | -5.0 | -0.5 | -0.2%
COC(=O)c1ccc(NC(=O)CCN2C(=O)NC(C)(C)C2=O)cc1 | -0.1 | -1.1 | · | -99.8 | -10.2 | · | -9.8%
CCN1CCN(c2c(C=O)c(Cl)nc3ccc(OC)cc23)CC1 | -0.2 | -9.3 | 0.8 | -0.1 | 19.2 | 5.5 | ·
COc1ccc(-c2nc(-c3ccncc3)no2)c(OC)c1 | 1.0 | 7.6 | -5.1 | 0.0 | -5.6 | -0.6 | -11.3%
O=C(O)c1ccc(/C=N/NC(=O)c2ccc(Br)cc2)cc1 | -2.5 | -15.1 | -13.5 | 2.2 | -1.7 | 4.5 | ?
CCCCN(CC)CCNC(=O)CN(C)S(=O)(=O)c1ccc2c(c1)c(=O)n(C)c(=O)n2C | -1.5 | -1.1 | 5.1 | 3.9 | 1.6 | 5.1 | -2.3%
COc1cc(CN2C(=O)C(NC(=O)c3ccco3)(C(F)(F)F)C3=C2CC(C)(C)CC3=O)cc(OC)c1 (stereo not given) | -5.4 | -10.2 | 2.0 | 1.4 | -3.2 | 5.7 | -1.7%
Oc1ccccc1C1=Nc2ccccc2N=C(c2cccs2)C1 | 0.5 | 0.8 | -23.4 | 0.8 | -6.4 | 1.5 | 0.5%
COC(=O)c1ccccc1NC(=O)COC(=O)/C=C/c1cccs1 | -0.1 | 10.6 | · | -2.3 | 3.8 | · | -9.7%
O=C(NC(N1CCOCC1)C(Cl)(Cl)Cl)c1ccccc1Cl (stereo not given) | -1.8 | 2.3 | -8.1 | -1.8 | 5.3 | 2.2 | -1.1%
COc1ccc(NC(=O)ON=C2c3ccccc3-c3ccccc32)cc1 | -3.0 | -53.4 | -6.2 | -0.2 | 2.0 | 0.7 | 6.0%
CN(C)c1ccc(/C=N\NC(=O)c2csnn2)cc1 | 0.4 | · | -2.5 | 5.0 | -1.2 | 0.4 | >100µM*
COc1ccc(N(C(C)C(=O)N/N=C/c2cccnc2)S(C)(=O)=O)cc1 (stereo not given) | -2.6 | -17.0 | -26.7 | -1.4 | -2.4 | 0.8 | 5.1%
OC(COc1ccc(Cl)cc1)CN1CCN(c2ccccc2)CC1 (stereo not given) | 0.2 | 15.4 | -9.7 | -3.9 | -2.0 | 4.8 | 5.5%
COCc1cc(C)nc(SCc2ccc(Br)cc2)c1C#N | 3.8 | -6.7 | 2.7 | -2.9 | -8.9 | 1.5 | ·
Cc1ccc(C(c2nnnn2CS(=O)(=O)c2ccc(C)cc2)N2CCC(C(N)=O)CC2)cc1 (stereo not given) | -2.3 | -0.6 | 0.8 | -0.2 | -6.9 | 7.4 | 0.9%
Cc1ccc(CN2CC(C(=O)NCCCn3nc(C)cc3C)CC2=O)cc1 (stereo not given) | -1.5 | · | · | · | -12.0 | · | 4.2%
O=C(Nc1cccc(Cl)c1N1CCOCC1)c1cc([N+](=O)[O-])ccc1N1CCOCC1 | 2.0 | -2.9 | -4.7 | -1.6 | -7.3 | 8.8 | ·
Cc1sc2ncnc(Sc3ccccc3C(=O)Nc3ccc(C#N)cc3)c2c1C | -2.0 | · | ? | -3.4 | -6.6 | -4.5 | ·
CCc1ccccc1NC(=O)C1=CC(c2ccc(OC)c(OC)c2)=NS(=O)(=O)N1C | 6.9 | · | -1.6 | -1.6 | 1.5 | -3.6 | ·
Cc1occc1C(=O)N/N=C/c1ccccc1[N+](=O)[O-] | -1.9 | -1.1 | 3.9 | -5.2 | -6.6 | -1.1 | ?
CCc1cc2cc3c(cc2nc1SCC(=O)Nc1cc(C)on1)OCO3 | -1.0 | -7.9 | -0.5 | 0.1 | 2.8 | -0.8 | -143.3%
Cc1sc2nc(C(C)(C)C)oc(=O)c2c1C | -0.1 | -12.8 | -3.4 | 1.2 | 1.2 | 0.8 | 1.1%
COCc1ccc(-c2ccc3c(c2)c(C#Cc2ccsc2)c(-c2cc(OC)cc(OC)c2)n3C)cc1 | 2.4 | -3.6 | · | -1.1 | -6.4 | · | ·
COC(=O)c1sc(NC(=O)CSc2nncs2)c(C(=O)OC)c1C | 1.7 | -3.0 | -2.1 | -1.6 | 7.6 | 0.5 | 3.7%

The list continues:
SMILES | HNF4A DNA FP | ALR H2O2 inh | Calb FLC | LANA-H2A inh | Beta2AR agonist | RanGTP-Imp inh | Vif TR-FRET
Cc1ccc(NS(=O)(=O)c2cccc(C(=O)NCC3(N(C)C)CCCCC3)c2)cc1 | 0.6 | -3.2 | -10.8 | -6.3 | -1.9 | 2.3 | 2.9%
CC(C)Oc1ccc(C(=O)NCC(=O)O)cc1 | 6.9 | -0.9 | 0.5 | 3.3 | 1.3 | 1.0 | -9.7%
Cc1nn(C)cc1S(=O)(=O)N1CCN(Cc2ccc(F)cc2Cl)CC1 | -2.0 | 0.5 | -11.5 | -1.0 | 3.7 | ? | 28.2%
COc1cc(/C=C2\CC/C(=C\c3cc(OC)c(O)c(OC)c3)C2=O)cc(OC)c1O | 25.0 | 43.5 | · | -1.5 | 11.6 | · | 1.56µM*
Cc1nn2c(N3CCN(C)CC3)c3c(nc2c1-c1ccccc1)CCCC3 | 2.5 | 43.4 | 14.6 | -3.6 | -11.8 | 2.1 | 24.0%
O=C(NCc1nc2ccccc2[nH]1)c1ccc(Cl)c(S(=O)(=O)N2CCCC2)c1 | 2.1 | -5.5 | 2.0 | 0.8 | -6.5 | -1.0 | 6.2%
CCSc1nc(C)c(CC)c(C)c1C(N)=O | 3.9 | -20.8 | 4.8 | 4.3 | -11.9 | -0.5 | -3.3%
COc1ccc(S(=O)(=O)N2CCN(c3nc4ccccc4nc3-n3nc(C)cc3C)CC2)cc1 | · | · | 2.4 | · | · | -0.5 | 10.2%
CC1(C)NC(=O)N(CC(O)CN(c2cccc([N+](=O)[O-])c2)S(=O)(=O)c2ccccc2)C1=O (stereo not given) | 0.3 | -5.8 | -9.4 | 2.4 | -1.8 | 3.1 | -0.7%
O=C(Nc1ccc2ccccc2c1)c1cn(-c2ccccc2)nc1-c1cccs1 | 1.0 | -5.3 | -19.6 | 1.3 | 9.1 | -1.9 | 1.0%
O=C(C1=C[C@@H](C2CCCCC2)C[C@@H](OCc2ccc(CO)cc2)O1)N1CCOCC1 | 0.8 | 34.3 | -16.4 | -2.8 | -2.0 | -0.3 | -10.5%
Cc1cccc(C)c1NC(=O)c1ccc(-n2cnnn2)cc1 | -3.0 | -1.6 | -3.8 | -1.6 | 1.8 | -0.5 | 35.8µM*
CCCCc1nc2ccccc2c(=O)n1NC(=O)c1c(O)c2c(n(CC(C)C)c1=O)CCCC2 | 5.5 | · | ? | · | 5.0 | -1.4 | -4.2%&6.0%
CC1(C)C(c2cccs2)=[N+]([O-])C2(CCCCC2=O)N1O (stereo not given) | 3.7 | 7.4 | 0.2 | -0.1 | 4.6 | 8.2 | 6.3%
Cc1ccc(CNC(=O)CCCc2c[nH]c3ccccc23)cc1 | 2.5 | 14.1 | -11.1 | 0.1 | 51.5* | 0.2 | ·
CC1CCCN(C(=O)COC(=O)c2ccc3[nH]c4c(c3c2)CCCC4)C1 (stereo not given) | -2.7 | -4.2 | -19.8 | 1.5 | 4.6 | 11.6 | -1.4%
CC1CCC(NC(=O)CN2CCC(n3nnc4cc(F)ccc43)CC2)CC1 (stereo not given) | -0.7 | · | -7.3 | -3.4 | -15.4 | -1.5 | ?
CN(CC(=O)Nc1ccc(F)cc1)c1ccc(S(=O)(=O)N2CCCC2)cn1 | -1.7 | -7.2 | -27.0 | -0.4 | -4.4 | 6.8 | 16.6%
Cc1ccc(S(=O)(=O)N(CC(=O)Nc2cccc([N+](=O)[O-])c2)C2CCCCC2)cc1 | 0.6 | -1.9 | 8.3 | -7.1 | -5.3 | ? | 3.3%
CC(=O)Nc1ccc(S(=O)(=O)NCCc2ccc(F)cc2)cc1 | -1.4 | -4.3 | 7.3 | 2.4 | -2.4 | 4.9 | ?
COc1ccc(NC(=O)CCN2CCCCCC2)c(OC)c1 | 4.3 | -58.2 | 1.2 | 8.9 | 6.1 | 6.4 | 1.8%
CC(C)c1onc(C(=O)Nc2ccc3c(c2)OCO3)c1[N+](=O)[O-] | 3.8 | -4.8 | -1.9 | 3.7 | 0.8 | 1.8 | ·
CC1(C)C(=O)Nc2ccccc2N1C(=O)COC(=O)c1cc(Cl)cc(Cl)c1 | -0.2 | 2.6 | · | -0.2 | -2.4 | · | ·
CCOC(=O)c1c(N)sc2c1CCSC2 | 8.2 | · | 1.2 | 1.6 | -4.3 | 4.0 | ?
Cc1ccc(C(=O)C(OC(=O)CN2C(=O)c3ccccc3C2=O)c2ccccc2)cc1C (stereo not given) | -0.6 | -8.3 | 0.3 | 4.5 | -6.5 | -0.8 | -8.2%
O=C(CCn1c(=O)sc2ccccc21)NC1=NCCS1 | -0.4 | -3.7 | 15.3 | -5.9 | -4.3 | -2.8 | -7.0%
COc1ccc(Cn2c(N)c(C#N)c3nc4ccccc4nc32)cc1 | 10.9 | -17.6 | -0.2 | 0.7 | 0.5 | 33.3* | -0.5%
N#CCC(=O)NNC(=S)Nc1ccccc1C(F)(F)F | -1.8 | 23.0 | 19.8 | 0.8 | -5.2 | -2.7 | 24.7%
CC(C)[N+]1=C2C=CC=CC=C2SC12C([N+](=O)[O-])=CC(=[N+]([O-])[O-])C=C2[N+](=O)[O-] (stereo not given) | -19.3 | -22.2 | 8.1 | -0.8 | 25.9 | ? | -4.5%
Oc1ccc(-c2cn3cc(C(F)(F)F)ccc3n2)cc1 | -3.7 | 90.2* | -22.6 | -3.1 | -14.1 | -2.0 | -5.9%

Some values from the list.
Value of O=C(C1=C[C@@H](C2CCCCC2)C[C@@H](OCc2ccc(CO)cc2)O1)N1CCOCC1 in RanGTP-Imp inh: -0.3
Value of COc1ccc(S(=O)(=O)N2CCN(c3nc4ccccc4nc3-n3nc(C)cc3C)CC2)cc1 in Calb FLC: 2.4

A different layout for 6 compounds above.
SMILES	HNF4A DNA FP	ALR H2O2 inh	Calb FLC	LANA-H2A inh	Beta2AR agonist	RanGTP-Imp inh	Vif TR-FRET
COc1ccc(NC(=O)CCN2CCCCCC2)c(OC)c1	4.3	-58.2	1.2	8.9	6.1	6.4	1.8%
CC(C)c1onc(C(=O)Nc2ccc3c(c2)OCO3)c1[N+](=O)[O-]	3.8	-4.8	-1.9	3.7	0.8	1.8	·
CC1(C)C(=O)Nc2ccccc2N1C(=O)COC(=O)c1cc(Cl)cc(Cl)c1	-0.2	2.6	·	-0.2	-2.4	·	·
CCOC(=O)c1c(N)sc2c1CCSC2	8.2	·	1.2	1.6	-4.3	4.0	?
Cc1ccc(C(=O)C(OC(=O)CN2C(=O)c3ccccc3C2=O)c2ccccc2)cc1C (stereo not given)	-0.6	-8.3	0.3	4.5	-6.5	-0.8	-8.2%
O=C(CCn1c(=O)sc2ccccc21)NC1=NCCS1	-0.4	-3.7	15.3	-5.9	-4.3	-2.8	-7.0%

Screens (PubChem)
